Assay outcomes deposited in PubChem BioAssay by National Center for Advancing Translational Sciences (NCATS).
HPGD block – blocks human HPGD enzyme activity | purified HPGD, NADH fluorescence kinetic, PGE2 substrate | Potency, µM, without a hit: at the highest dose activity change, negative = inhibition, most hits filed as inhibitors | AID 894 | 150,000 tested, 4.3% active; active = well fitted inhibition curve with a large enough effect (not every such curve was filed as active); inconclusive = small, poorly fitted or top-dose-only effect, or another doubt; inactive = no such curve, though single readings can be large or run the other way;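 note: top concentration of the series not given in the record; plate controls included wells without enzyme; inactives centre near -10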
Target sequence (P15428 whole entry, looked up): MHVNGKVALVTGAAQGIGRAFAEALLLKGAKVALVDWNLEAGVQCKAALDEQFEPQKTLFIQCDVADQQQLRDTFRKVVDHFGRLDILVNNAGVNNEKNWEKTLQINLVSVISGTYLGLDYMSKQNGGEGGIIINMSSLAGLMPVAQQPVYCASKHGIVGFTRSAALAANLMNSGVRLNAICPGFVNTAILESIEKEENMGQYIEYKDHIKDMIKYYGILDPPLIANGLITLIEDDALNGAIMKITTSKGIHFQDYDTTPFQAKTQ
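20 nM HPGD preincubated 15 min at room temperature with compound in 50 mM Tris-HCl pH 8, 0.01% Tween 20. Started with 1 mM NAD+ and 30 uM prostaglandin E2; NADH fluorescence (360/450 nm) read 5 times over 30-s intervals, last minus first.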
Numbers without * were called inactive; ? = inconclusive; & = joins results of further samples. % is set by controls: 0 for no effect and ±100 for the full control effect; potency is the fitted concentration of half-maximal effect.

HPGD block,SMILES
-11.9%,O=C1N/C(=N\N=C\c2cccs2)SC1Cc1cccc(Cl)c1Cl (centres undefined)
-1.6%,Cc1cc(C)c(C(=O)CSc2nc(C)cc(C)c2C(N)=O)c(C)c1
-3.2%,CCOC(=O)CSc1nnc(-c2ccco2)n1C
-1.5%,O=C(O)C1CC=CCC1C(=O)NCCc1ccccc1 (centres undefined)
-7.8%,CN(C)c1ccc(C2C3=C(CCCC3=O)OC3=C2C(=O)CCC3)cc1
14.1µM*,COc1ccc(-c2nc3ccccc3c(=O)n2NC(=S)N(C)C)cc1
?,O=C(COc1ccc2c(c1)C(=O)CC1(CCCCC1)O2)NCc1ccccc1
0.9%,CCc1ccc(-c2ccc(C(=O)O)c(C)n2)cc1
-8.7%,Cc1cccc(C(=O)NCCN2CCCC2)c1
?,CCOC(=O)CCNC(=O)Nc1ccc2nc(C)n(Cc3ccccc3Cl)c(=O)c2c1
0.7%,O=C(c1ccco1)N1CCN(C2CC(=O)N(c3ccc4c(c3)OCO4)C2=O)CC1 (centres undefined)
-10.6%,Nc1ccc(-n2ccnc2)cc1
-0.8%,CNC(=O)N(O)C1N(NC(=O)Nc2cccc3ccccc23)C(=S)SC1(C)C (centres undefined)
-2.1%,CCCC(C(=O)OCC)P(=O)(c1ccccc1)c1ccccc1 (centres undefined)
-5.5%,CCn1cc([N+](=O)[O-])c(C(=O)N2CCCC2)n1
-3.0%,COc1ccc(Nc2nc(N)nc(CN(C)C3CCCCC3)n2)cc1
-6.9%,CN1CCN(NS(=O)(=O)c2cccs2)CC1
-9.8%,COc1ccccc1NCCC(=O)OCC(=O)Nc1ccc(Cl)cn1
-2.4%,CCN(CC)CC#CC(C)OCOCC#CCOC (centres undefined)
-1.5%,CC(=O)NCc1nc2ccccc2n1C(C)C
?,Cc1nc(N(C)C)ncc1C(=O)O
-10.5%,CN1CCN(S(=O)(=O)c2ccc(Sc3nnnn3-c3ccccc3)c([N+](=O)[O-])c2)CC1
7.08µM*,O=c1[nH]c(-c2ccncc2)nc2ccccc12
-10.6%,CCOc1ccc(C(=O)NC(=S)N(Cc2ccccc2)Cc2ccccc2)cc1
-13.7%,Cc1ccc(N(Cc2cc3ccccc3[nH]c2=O)C(=O)c2ccco2)c(C)c1
-11.3%,COCCn1c(SCC(=O)c2ccc3c(c2)OCCO3)nnc1-c1ccco1
?,C/C(=N\OC(=O)c1cccc(C(F)(F)F)c1)c1sc(-c2ccccc2)nc1C
-9.8%,CC(C)(C)c1n[nH]c(=S)n(/N=C/c2cccs2)c1=O
-15.3%,CC1=Nc2ccccc2/C1=C\c1nc(-c2ccc(F)cc2)oc1O
-13.0%,CCn1nnc(NC(=O)c2ccc(C(C)(C)C)cc2)n1
-3.0%,O=C(O)CCC(=O)Nc1ccc(Cc2ccc(NC(=O)CCC(=O)O)cc2)cc1
-20.1%,CN(C)C1C(=O)C(C(N)=O)C(=O)C2(O)C(=O)C3C(=O)c4c(O)ccc(Cl)c4C(O)C3CC12 (centres undefined)
-15.0%,Cc1ccc(C)c(C(=O)n2cnnc2N)c1
-5.9%,CS(=O)(=O)N(CCc1ccccc1)CC(=O)NCc1ccncc1
-27.9%,COc1ccc(OC)c(NC(=O)Nc2cccc(Cn3cccn3)c2)c1
-12.2%,C/C(Cl)=C\Cn1c(=O)c2c(nc3n2CCS3)n(C)c1=O
-2.7%,CCc1ccccc1NC(=O)c1ccccc1Sc1ccc([N+](=O)[O-])cc1Cl
?,Cc1cc(C)c2c(N)c(C(=O)NCc3ccco3)sc2n1
-16.9%,Cc1ccc(C)c(S(=O)(=O)Nc2ccc3scnc3c2)c1
-10.9%,COc1ccc(CNC(=O)C(c2ccc(C)cc2)N(Cc2cccs2)C(=O)c2ccc3c(c2)OCCO3)cc1 (centres undefined)
-22.3%,CSc1nsc(SCC(=O)N2CCc3ccccc32)n1
?,COc1nc2c(C)cccc2cc1-c1noc(-c2ccco2)n1
-2.0%,CCCCc1nc2n[nH]c(N)c2c2c1CSC(C)(C)C2
-11.6%,Cc1noc(C)c1Cn1nc(C(=O)O)c2ccccc2c1=O
31.6µM*,O=C(Cn1cnc2c(nnn2Cc2ccccc2F)c1=O)NCc1ccco1
-4.0%&-8.1%,CC(=O)N1[C@H](C)C=C[C@]1(Cc1ccccc1)C(=O)O
?,Cc1c(NC(=S)N/N=C\c2ccccc2O)c(=O)n(-c2ccccc2)n1C
35.5µM*,COc1ccc(-n2c(-c3cccc(C)c3[N+](=O)[O-])n[nH]c2=S)cc1

Reformatted field by field: part of the list above
O=C(O)C1CC=CCC1C(=O)NCCc1ccccc1 (centres undefined)
  HPGD block: -1.5%
CN(C)c1ccc(C2C3=C(CCCC3=O)OC3=C2C(=O)CCC3)cc1
  HPGD block: -7.8%
COc1ccc(-c2nc3ccccc3c(=O)n2NC(=S)N(C)C)cc1
  HPGD block: 14.1µM*
O=C(COc1ccc2c(c1)C(=O)CC1(CCCCC1)O2)NCc1ccccc1
  HPGD block: ?

Next part.
HPGD block,SMILES
-11.6%,Cc1c(NC(=O)c2cc3ccccc3c(=O)s2)c(=O)n(-c2ccccc2)n1C
-28.0%,CC(=O)C(=Nc1ccccc1Cl)NNc1ccc(Cl)cc1
-8.2%,O=C(CN1CCCC1)NCC12CC3CC(CC(C3)C1)C2
-20.2%,CC(=O)Nc1cccc(C(=O)OC(C(=O)c2ccc(C)c(C)c2)c2ccccc2)c1 (centres undefined)
-8.3%,CC(=O)Nc1ccc(-c2cn3ccsc3n2)cc1
0.6%,Cc1nc2cc(CC(=O)O)ccc2o1
-23.7%,CC1CCc2c(C(=O)NCCCN3CCOCC3)csc2C1 (centres undefined)
-14.3%,Cc1cccc2cc(C3CC(c4cccs4)=NN3C(=O)CCC(=O)O)c(Cl)nc12 (centres undefined)
-22.1%,Cc1c(C(=O)Nc2ccc(OCc3ccccc3)cc2)cccc1[N+](=O)[O-]
-23.1%,COC(=O)CSc1nc2ccc(C)cc2[nH]1
-16.0%,COc1ccccc1-n1c(SCC(=O)Nc2cccc3ccccc23)nc(O)cc1=O
?,O=C(c1ccccc1)c1nnc(-c2ccccc2F)o1
?,Cc1noc(C)c1S(=O)(=O)Nc1ccc(C(=O)N2CCc3ccccc3C2)cc1
-16.8%,Cc1ccc(C2=NNC(C(O)C(O)C(O)C(O)CO)S2)cc1 (centres undefined)
8.91µM*,c1ccc(OCc2nnc3sc(-c4cccs4)nn23)cc1
-1.5%,COc1ccc(C(OC(=O)c2c(C)noc2C)C(=O)NC2CCCC2)cc1 (centres undefined)
-4.6%,Cc1cc(C)nc(NC(=O)CSc2nnnn2-c2ccccc2)n1
-18.0%,COc1cc(-c2noc(CCCC(=O)NCc3ccco3)n2)cc(OC)c1OC
-11.3%,O=C(Oc1coc(CSc2nnc(NC(=O)C3CC3)s2)cc1=O)c1ccccc1
-10.4%,CCc1cc2c(cc3c(=O)n(CC(=O)NCCCN4CC(C)CC(C)C4)ncn32)s1 (centres undefined)
-3.6%,CN(CC(=O)O)Cc1oc(CO)cc(=O)c1O
-20.7%,O=C(/C=C/c1ccc2c(c1)OCCCO2)c1ccccc1O
-16.7%,O=[n+]1c2c(n([O-])c3ccccc31)CCCC2
-10.4%,Cc1ccc(-c2nnc(SCC(=O)N/N=C/c3c(C)nn(-c4ccccc4)c3C)n2-c2ccccc2)cc1

Arranged by molecular weight (rising): some entries from above
HPGD block,SMILES
0.9%,CCc1ccc(-c2ccc(C(=O)O)c(C)n2)cc1
-3.2%,CCOC(=O)CSc1nnc(-c2ccco2)n1C
35.5µM*,COc1ccc(-n2c(-c3cccc(C)c3[N+](=O)[O-])n[nH]c2=S)cc1
14.1µM*,COc1ccc(-c2nc3ccccc3c(=O)n2NC(=S)N(C)C)cc1

Next part:
HPGD block,SMILES
-6.9%,Cc1ccc(S(=O)(=O)N2CCCOC2CNC(=O)C(=O)NCCCn2ccnc2)cc1 (centres undefined)
-4.1%,CCCNC(=O)NC(=O)CSc1ccc2c(c1)OCCO2
-18.5%,Fc1ccc(-c2ccnc3nc(N4CCN(c5ccccc5)CC4)nn23)cc1
-8.7%,CC1(C2CC2)NC(=O)NC1=O (centres undefined)
-12.4%,CCCCCC(=O)NC(NC(=S)NC1CCS(=O)(=O)C1)C(Cl)(Cl)Cl (centres undefined)
-11.3%,CN(C)c1nccc(N(Cc2ccccc2)Cc2ccccc2)c1C#N
-19.4%,COc1ccc(OC)c(N2C(=O)CC(Cc3cc(C)cc(C)c3)C2=O)c1 (centres undefined)
-10.9%,CC(C)(C)NC(=O)CSc1n[nH]c(=O)n1-c1ccccc1
1.8%,CCC(C)NS(=O)(=O)c1ccc(OCC(=O)N2CCCC2)cc1 (centres undefined)
-8.9%,C/C(CC(=O)N(C(C)C)C(C)C)=N\NC(=O)c1ccccc1Br
-3.1%,COc1ccccc1CNC(=O)C(NS(=O)(=O)c1ccc2c(c1)OCCO2)C(C)C (centres undefined)
-17.5%,COc1ccc2c(c1)sc1nc(-c3ccccc3)cn12
?,O=S(=O)(c1ccc(-c2csc(Nc3ccc(F)cc3)n2)cc1)N1CCCC1
0.5%,CC(=O)c1ccc(OCC(O)CN2CCN(Cc3ccc4c(c3)OCO4)CC2)cc1 (centres undefined)
0.3%,CC(C)[C@H](NC(=O)Nc1cccc(C(F)(F)F)c1)C(=O)O
-11.2%,O=S(=O)(c1ccccc1)N1CCC2(CCN(c3ccccc3)CC2)CC1
-10.9%,Nc1cccc(O)c1
?,O=C(Nc1ccc(F)cc1)c1sc2cc(C(F)(F)F)cnc2c1-c1cccs1
-9.8%,Cc1ccc2nc(Nc3nc(C)cc(C(F)(F)F)n3)nc(C)c2c1
?,COc1cc2cc(Oc3ccc4ccc(=O)oc4c3)c(=O)oc2cc1O
-12.7%,CN(Cc1ccccc1)Cc1c[nH]c2ccccc12
?,Cc1ccccc1Nc1nnc(SCC(=O)c2cc3ccccc3o2)s1
-4.6%,COc1ccccc1NC(=O)c1ccc(C)s1
-22.0%,O=C(CCc1ccccc1)Nc1ccccc1F
-1.5%,COc1cccc(NC(=O)Nc2cc(NC(=O)Nc3cccc(OC)c3)c(C)nc2C)c1
-3.2%,CC/C(C)=C1\SC(N2CCN(c3cccc(C(F)(F)F)c3)CC2)=NC1=O
-19.9%,CC(=O)c1ccc(N2C(=NC(=O)C(C)C)SC3CS(=O)(=O)CC32)cc1 (centres undefined)
-2.3%,Cc1ccc(OCC(=O)NNC(=O)C2CCN(c3nc(C)cc(C)n3)CC2)cc1
-3.4%,Cc1onc(C(=O)/C=C/N(C)C)c1C(=O)Nc1nccs1
-16.3%,Cn1cc(Cl)c(-c2nc3ccccc3[nH]2)n1
-7.7%,O=C(Nc1ccc(F)cc1)C1CCN(c2nnnn2-c2ccccc2)CC1
-3.2%,COc1ccc(C(=O)OCCN2C(=O)c3ccccc3C2=O)cc1
-14.7%,N#CC1=C(N)OC2=C(CC/C2=C\c2ccccc2Cl)C1c1ccccc1Cl (centres undefined)
-1.8%,C=CCN(C(=O)Nc1ccc(F)cc1)C1CC(=O)N(c2ccc(OC)cc2)C1=O (centres undefined)
-4.7%,CCC(=O)N1c2ccccc2-c2nnc(SC)nc2OC1c1ccc(N(C)C)cc1 (centres undefined)
-1.5%,COc1cccc(-c2ccc(=O)n(CC(=O)Nc3cc4c(cc3NC(C)=O)OCCO4)n2)c1
-14.6%,CCSC1=N/C(=C/c2ccsc2)C(=O)N1c1ccccc1
-17.8%,CCSc1ncc(Cl)c(C(=O)Nc2sc3c(c2C(=O)NCc2cccnc2)CCCC3)n1
-7.1%,CCc1ccc(N2CC(C(=O)Nc3cc(C)ccc3F)CC2=O)cc1 (centres undefined)
-7.3%,Cc1c(NC(=O)C(C)Sc2nc3ccccc3c(=O)n2CCO)c(=O)n(-c2ccccc2)n1C (centres undefined)

5 entries from above, as a markdown table.
| Molecule | HPGD block |
| --- | --- |
| Cc1cc(C)c(C(=O)CSc2nc(C)cc(C)c2C(N)=O)c(C)c1 | -1.6% |
| COc1ccccc1NCCC(=O)OCC(=O)Nc1ccc(Cl)cn1 | -9.8% |
| CCn1nnc(NC(=O)c2ccc(C(C)(C)C)cc2)n1 | -13.0% |
| COc1ccc2c(c1)sc1nc(-c3ccccc3)cn12 | -17.5% |
| CCOC(=O)CSc1nnc(-c2ccco2)n1C | -3.2% |

(next part)
HPGD block,SMILES
-3.9%,O=C(O)c1ccc2c(c1)OCCO2
-9.6%,COC(=O)c1cn(NC(=O)c2cccc(OC)c2)c(=O)c2ccccc12
-13.1%,c1cnc2ncc3sccc3c2c1
-9.9%,COc1ccc(OC)c(-c2csc(NC(=O)C3c4ccccc4Oc4ccccc43)n2)c1
2.3%,COc1ccc(/C(N)=N/OC(=O)CSc2ccc(C)cc2)cc1OC
-7.6%,O=[N+]([O-])c1ccc(COc2cccc(CNc3ccc(F)cc3)c2)cc1
-6.2%,CCOC(=O)C(NCc1ccc2c(c1)OCO2)(NC(=O)CC)C(F)(F)F (centres undefined)
-6.3%,CC(=O)N(C)C(c1ccc(N(C)C)cc1)c1nnnn1-c1c(C)cccc1C (centres undefined)
-3.9%,COc1ccc(C2C(C(=O)Nc3ccc(F)cc3)=C(C)Nc3nc(CCCO)nn32)cc1 (centres undefined)
14.1µM*,CCOc1ccc2nc(NC(=S)N(C)C)sc2c1
-5.1%,COC(=O)C1CCN(C(=O)CCCOc2ccccc2)CC1
-21.2%,O=C(/C=C/c1ccc2c(c1)OCO2)NCCSCc1ccc(Cl)cc1
-8.7%,CCOC(=O)C(Cc1ccc(O)cc1)NC(C)=O (centres undefined)
?,CN(C)c1ccc(C(=O)c2ccccc2)cc1
-14.8%,c1ccc2cc(Sc3ncnc4c3oc3ccccc34)ccc2c1
?,CCCCSc1c(C)c2cc3c(cc2[nH]c1=O)OCO3

An excerpt. The share of hits here may be higher or lower than overall.
